Bioassay records from PubChem BioAssay.
HIV TAR-Tat: HIV-1 TAR-Tat binding disruption; z-score (no concentration beside the values); AID 1259389; HIV-1 TAR RNA, Tat peptide displacement FRET; active compounds read high; hit rate 0.6% among 100,000;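 note: score is relative to mean and SD of negative controls; some compounds called inactive have numbers as strong as hits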
CDC25B-CDK2 inh: human CDC25B-CDK2/CyclinA binding inhibition | P30305+P24941 | HTRF CDC25B-CDK2/CyclinA binding, anti-His/anti-Flag; active compounds read high | z-score (concentration not given with the values) | hit rate 0.72% among 94,000 | AID 1259370;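 note: score is relative to mean and SD of negative controls; strong numbers were not always called active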
Starred values were filed as active, the others as inactive; nt = no result given.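 Rule for the calls: active = z-score from 3 up in half or more of its runs; inactive = the rest.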

SMILES | HIV TAR-Tat | CDC25B-CDK2 inh
COc1cccc2c1OC(C(C)C)N1N=C(c3cc(C)ccc3O)CC21 (centres undefined) | 0.15 | 1.1
CCC1COC(c2cccn2Cc2ccc(Cl)cc2)=N1 (centres undefined) | 1.1 | nt
CCN1c2cc(C)ccc2-n2cccc2C12CCN(C(=O)NCC1CCCO1)CC2 (centres undefined) | 0.93 | nt
c1ccc(CCn2c(C3CCCO3)nc3ccccc32)cc1 (centres undefined) | 1.2 | 0.92
CCOc1ccc(-n2ccn3c(=O)[nH]nc3c2=O)cc1 | 1.5 | -0.62
Cc1cc(-c2ccc(=O)[nH]n2)cc(S(=O)(=O)NC2CCCC2)c1C | 1.1 | nt
COc1ccc2c(c1)c(=O)oc1cc3oc(C)c(C)c3cc12 | 2.6 | -1.4
CCCNc1nc(N2CCN(C)CC2)c2cnn(C)c2n1 | 1.6 | nt
O=C(NCC(c1ccco1)N1CCCC1)c1cc(=O)c2cc(Cl)ccc2o1 (centres undefined) | 0.71 | -1.1
Cc1ccc(S(=O)(=O)NC2=NCN(CC3CCCO3)CN2)cc1 (centres undefined) | 1.1 | -1.8
C=CC[n+]1sc2cc(Cl)ccc2c1C | -0.68 | -0.25
Cc1[nH]c(=S)[nH]c(=O)c1Oc1ccc(F)cc1 | nt | -2
CNC(=O)c1oc2ccc3c(c2c1C)C(=O)CC1(CCCCC1)O3 | 1.2 | 2.4
Cc1nn(-c2ccc(N3CCCCC3)nn2)c(C)c1CCC(=O)NCCCN1CCOCC1 | -1.2 | nt
CC1(C)CC(=O)N(CC(=O)NCCC2=CCCCC2)c2ccccc2S1 | nt | -1.5
CCC(O)c1nc2ccccc2n1CC(=O)N(CC(C)C)CC(C)C (centres undefined) | -1.1 | -1.1
CC(C)(C)c1ccc(-c2nc3cc(NC(=O)c4ccc([N+](=O)[O-])o4)ccc3o2)cc1 | 2.5 | -0.41
O=C(c1cccc(Cl)c1F)n1nccc1-c1ccc(-c2cccs2)s1 | nt | -1.1
CC(C)COc1ccc(COC2C(C3COC(C)(C)O3)OC3OC(C)(C)OC32)cc1 (centres undefined) | nt | -2
CCn1nccc1C1CCCN1C(=O)Nc1cccc(Cl)c1 (centres undefined) | -0.58 | -1.4
COc1ccc(Cn2c(CN)nc3cccnc32)cc1 | 0.95 | -0.95
CCCSc1nc(N2CCOCC2)c2c3c(sc2n1)COC(C)(C)C3 | 1.3 | -1.1
CCc1nc2sc3c(NCCN4CCOCC4)ncnc3c2c2c1CCCC2 | nt | -2.5
CC1(C(=O)NC2CCCC2)Cn2c(cc3sccc32)C(=O)N1Cc1ccco1 (centres undefined) | 1 | -1.6
c1ccc(-c2nn3c(-c4ccncc4)nnc3s2)cc1 | 1.4 | -0.16

14 of these compounds, reformatted:
| SMILES | HIV TAR-Tat | CDC25B-CDK2 inh |
| --- | --- | --- |
| COc1cccc2c1OC(C(C)C)N1N=C(c3cc(C)ccc3O)CC21 (centres undefined) | 0.15 | 1.1 |
| CCC1COC(c2cccn2Cc2ccc(Cl)cc2)=N1 (centres undefined) | 1.1 | nt |
| CCN1c2cc(C)ccc2-n2cccc2C12CCN(C(=O)NCC1CCCO1)CC2 (centres undefined) | 0.93 | nt |
| c1ccc(CCn2c(C3CCCO3)nc3ccccc32)cc1 (centres undefined) | 1.2 | 0.92 |
| CCOc1ccc(-n2ccn3c(=O)[nH]nc3c2=O)cc1 | 1.5 | -0.62 |
| Cc1cc(-c2ccc(=O)[nH]n2)cc(S(=O)(=O)NC2CCCC2)c1C | 1.1 | nt |
| COc1ccc2c(c1)c(=O)oc1cc3oc(C)c(C)c3cc12 | 2.6 | -1.4 |
| CCCNc1nc(N2CCN(C)CC2)c2cnn(C)c2n1 | 1.6 | nt |
| O=C(NCC(c1ccco1)N1CCCC1)c1cc(=O)c2cc(Cl)ccc2o1 (centres undefined) | 0.71 | -1.1 |
| Cc1ccc(S(=O)(=O)NC2=NCN(CC3CCCO3)CN2)cc1 (centres undefined) | 1.1 | -1.8 |
| C=CC[n+]1sc2cc(Cl)ccc2c1C | -0.68 | -0.25 |
| Cc1[nH]c(=S)[nH]c(=O)c1Oc1ccc(F)cc1 | nt | -2 |
| CNC(=O)c1oc2ccc3c(c2c1C)C(=O)CC1(CCCCC1)O3 | 1.2 | 2.4 |
| Cc1nn(-c2ccc(N3CCCCC3)nn2)c(C)c1CCC(=O)NCCCN1CCOCC1 | -1.2 | nt |

The results go on:
SMILES | HIV TAR-Tat | CDC25B-CDK2 inh
COC(=O)c1ccc(NC2=C(Cl)C(=O)OC2OC(=O)c2ccccc2)cc1 (centres undefined) | nt | -1.3
O=C1NC(NS(=O)(=O)c2ccccc2)(C(F)(F)F)C(=O)N1c1ccc(F)c(Cl)c1 (centres undefined) | nt | 18*
COc1cccc(NS(=O)(=O)c2cc(-c3noc(C)n3)cs2)c1 | 2 | nt
O=C(CCSc1nc(-c2ccco2)cc(C(F)(F)F)n1)Nc1cnn(Cc2ccccc2)c1 | -0.74 | -1.1
CCOC(=O)c1cc(=O)n(C)c2c1c(=O)oc1ccccc12 | nt | -6.3
COC(=O)[C@]1(C)CCC[C@]2(C)c3ccc(C(C)C)cc3C(=O)CC12 (some centres undefined) | 1.2 | nt
CC(C)c1nn2c(=O)cc(CSc3nc4ccc(NC(=O)c5ccco5)cc4s3)nc2s1 | 0.54 | nt
CC(C)CCOc1cccc(C2c3c(oc4ccccc4c3=O)C(=O)N2c2ccccn2)c1 (centres undefined) | 0.79 | -0.28
O=C(C=C1SCCS1)c1cccc(C(F)(F)F)c1 | nt | -0.59
Cc1cc2c(=O)n(CC(=O)O)cnc2s1 | 1.4 | nt
CN(C)CCCNc1oc(-c2ccc(COc3ccc(Cl)cc3)o2)nc1C#N | 1.1 | -1.2
O=S1(=O)c2ccccc2NC(c2ccccc2F)N1Cc1ccccc1 (centres undefined) | nt | 0.22
O=C(c1c[nH]c2ccc(S(=O)(=O)Nc3ccc4c(c3)OCCO4)cc2c1=O)N1CCCC1 | nt | -1.1
CC(C)c1ccc(-c2c(Nc3ccc(Cl)cc3F)c(=O)c2=O)cc1 | 3 | nt
Cn1c(=O)oc2cc(S(=O)(=O)N3CCCc4ccccc43)ccc21 | 0.98 | -0.96
CCC(=O)N1c2ccccc2C(N(C(=O)c2ccco2)c2ccccc2)CC1C (centres undefined) | 3.1 | -2.6
CN1C(=O)C(C)(C)c2cc(S(=O)(=O)N(C)CCCc3ccco3)ccc21 | -1.3 | nt
CC1=CC(C)(C)N(C(=O)CSc2nncn2C)c2ccccc21 | 0.08 | 0.26
Cn1c(SCc2ccccc2)nc(=O)c2c1NC(=O)CC2c1ccc2c(c1)OCCO2 (centres undefined) | 0.58 | -0.67
CCc1ccc(OCCn2c(C(O)CC)nc3ccccc32)cc1 (centres undefined) | -0.93 | -0.51
CCN(CC)CCNc1ncnc2c1sc1nc(-c3ccco3)c3c(c12)CC(C)(C)OC3 | 0.59 | 3.5
COc1cc(CN2CCN(Cc3ccc(Cl)cc3)CC2)cc2c1OCO2 | nt | -0.02
COc1ccc(S(=O)(=O)Oc2nc(-c3cccs3)n(-c3ccccc3)n2)cc1 | nt | -2.1
Cc1cc(-c2ccc(S(=O)(=O)NCc3ccccc3Cl)s2)on1 | -2.8 | nt
O=S(=O)(c1cccc2nsnc12)N1CCN(Cc2ccccc2)CC1 | -0.13 | -1

Further entries follow:
SMILES | HIV TAR-Tat | CDC25B-CDK2 inh
Cn1c(=O)[nH]c(=O)c2c1nc(NCCCn1ccnc1)n2Cc1ccc(F)cc1 | -0.9 | -2.4
Cc1ccc2c(=O)c(CN(C)C3CCN(C)CC3)c(C)[nH]c2c1C | nt | -0.29
CCn1c2ccccc2c2nc(C)sc21 | -1.3 | 1.1
NS(=O)(=O)c1ccc2c(c1)OCCO2 | -5 | -0.67
O=S(=O)(c1ccc2c(c1)CCN2)N1CCN(Cc2ccc3c(c2)OCO3)CC1 | 1.9 | nt
CCCN1CCN(C(=O)C2CCCN(S(=O)(=O)c3ccc4c(c3)CCCN4C(C)=O)C2)CC1 (centres undefined) | 0.36 | nt
O=c1cc2nc(-c3ccccc3F)nc(SCc3cc(=O)n4ccsc4n3)n2[nH]1 | -1.2 | nt
CCC(CO)Nc1ncnc2c1sc1nc3c(cc12)COC(C)(C)C3 (centres undefined) | 0.5 | nt
O=C(O)c1cccc(NC(=O)c2ncn[nH]2)c1 | nt | -0.04
O=C(CSc1nnc2c(n1)-c1cccc3cccc-2c13)Nc1ccc(Cl)c(C(=O)O)c1 | 0.55 | -1.5
O=C(Nc1ccc2c(c1)OCO2)c1noc2c1CCc1sccc1-2 | 0.15 | nt
Cc1cc(C(=O)NCc2cccs2)no1 | -1.4 | -1.1
O=C(/N=C1/NC(=O)C(F)(C(F)(F)F)S1)NC1CCCCC1 (centres undefined) | -4.1 | -1.5
C=CCN1C(=O)C(O)(CC(=O)c2c(C)n[nH]c2C)c2cc(Br)ccc21 (centres undefined) | 0.37 | -2.8
CC(C)CN1C(=O)NC(NC(=O)c2ccco2)(C(F)(F)F)C1=O (centres undefined) | nt | 0.85
OCC1c2ccccc2-c2ccccc21 | 1.1 | 0.49
CCCCN(C)C(=O)Cn1ncn2cccc2c1=O | -0.46 | -2
CC1CN(C(=O)Nc2ccccc2Br)c2ccccc2S1 (centres undefined) | 0.68 | nt
Clc1ccc(-c2noc(CSc3nc4ccccc4[nH]3)n2)cc1 | -1.8 | 0.46
Cc1ccc(-c2nc(C)c(CCNS(=O)(=O)c3ccc(F)cc3)s2)cc1 | 1 | nt
O=C(c1ccccc1)c1ccc[nH]1 | nt | -0.94
Cn1c(Cn2c(=O)sc3ccccc32)nnc1SCC(N)=O | nt | -2
Cc1ccc(S(=O)(=O)N(Cc2nc(-c3cccc(C)c3)no2)C2CCCCC2)cc1 | 0.58 | -0.2
O=C(Cn1c(=O)c2cccn2c2ccccc21)NCCCN1CCCC1 | 2.1 | nt
COC(=O)c1ccc(C2c3c(oc4ccccc4c3=O)C(=O)N2Cc2ccc3c(c2)OCO3)cc1 (centres undefined) | -0.8 | -0.37

The listing continues:
SMILES | HIV TAR-Tat | CDC25B-CDK2 inh
CCCc1nn(-c2ccc(=O)[nH]n2)c(CCC)c1CC | 2.3 | -1.6
O=S(=O)(NC1NN=C(c2cc(Cl)cc(Cl)c2O)N1Nc1ccccc1)c1ccccc1 (centres undefined) | nt | -0.37
C1=C(c2ccccc2)Nc2nnnn2C1 | nt | -0.85
COc1ccc(C2C3=C(CC(C)(C)CC3=O)N=C3c4ccccc4C(=O)C32)cc1OC (centres undefined) | 0.34 | -1.1
CCCS(=O)(=O)N1CCCc2ccc(NS(=O)(=O)c3ccc(C(C)C)cc3)cc21 | 1.4 | nt
CCCOC(=O)C1=C(C)NC2=C(C(=O)C(C(=O)OC)C(C)C2)C1c1c(F)cccc1Cl (centres undefined) | -0.05 | 0.2
COc1ccc(-c2nn(-c3ccccc3)cc2C2CC(c3ccccc3)=NN2S(C)(=O)=O)cc1 (centres undefined) | -1.5 | -3.2
Cn1ncc2c(Nc3ccc(Cl)cc3)nc(N3CCC(N4CCCCC4)CC3)nc21 | -1.4 | nt
CCOC(=O)c1cc(C)nn1C(=O)c1c(F)cccc1Cl | nt | -2.2
Cc1cc(N2CCN(C3CCCCC3)CC2)n2ncc(-c3ccc(F)cc3)c2n1 | -0.75 | -0.27
COc1ccc(N2C(=O)C3N=NN(CC(=O)Nc4ccccc4Br)C3C2=O)cc1OC (centres undefined) | 1.3 | nt
CC1(C)Cc2nc3oc4c(SCC(=O)N5CCCC5)ncnc4c3cc2CO1 | 0.72 | nt
Fc1cccc(Cl)c1CSc1nccn1-c1cccnc1 | nt | -1.2
COc1ccc(Cl)cc1C(=O)N1N=C(C)CC1(O)C(F)(F)F (centres undefined) | nt | -1.1
Clc1ccc(CN2CCCNCC2)c(Cl)c1 | nt | -1.3
O=C(CC1(CC2=NS(=O)(=O)c3ccccc3N2)CCCC1)NCCC1=CCCCC1 | 2 | nt
CCOC(=O)c1sc2cccc(F)c2c1S(=O)(=O)Nc1ccc(F)cc1 | 0.63 | nt
C=CCN1C(=O)C2(C(C#N)=C(N)Oc3n[nH]c(C)c32)c2ccccc21 (centres undefined) | nt | -1.6
CCOCCCNC(=O)c1cc2n(n1)CC(C)(C(=O)NC1CCCC1)N(C)C2=O (centres undefined) | 0.04 | nt
Fc1ccccc1COc1ccc(-c2nn[nH]n2)cc1 | nt | 1.3
NC(=O)c1nc(-c2ccc(OCc3ccccc3)cc2)nc2c1[nH]c(=O)n2C1CCCCC1 | -3.6 | nt
CO/N=C1/CC(C)(C)Cc2c(C(=O)O)sc(SC)c21 | nt | -2.6
COc1ccccc1NS(=O)(=O)c1ccc2c(c1)S(=O)(=O)N=CN2 | 1.3 | nt
COc1cccc(C(=O)OCc2cc(=O)n3nc(C4CC4)sc3n2)c1 | 1.2 | nt
Cc1cc2oc(=O)n(C)c2cc1NC(=O)c1cccs1 | 0.01 | -0.69

(further entries)
SMILES | HIV TAR-Tat | CDC25B-CDK2 inh
O=C1c2ccccc2C(Nc2cccnc2)N1Cc1ccccc1 (centres undefined) | 1.3 | -1.9
CN1CCC(N(CCN2CCOCC2)S(=O)(=O)c2ccc3c(c2)C(C)(C)C(=O)N3C)CC1 | 0.82 | nt
Cn1c(SCC(=O)Nc2ccccc2)nnc1-c1ccco1 | nt | -2.2
O=C1c2cccnc2C(=O)N1CCc1ccc(S(=O)(=O)NCCc2ccccc2)cc1 | 0.34 | nt
O=C(c1ccco1)N1CCN(C(=O)C2CCN(c3ncnc4c3nc3n4CCCCC3)CC2)CC1 | 1.2 | nt
COc1ccc(Cl)cc1N(C)C(=O)c1noc2c1COc1ccccc1-2 | 0.27 | -1.1
Cc1ccc(C)n1-c1cc(-c2ccccc2)[nH]n1 | nt | -2.8

Two compounds drawn at random from those above:
SMILES | HIV TAR-Tat | CDC25B-CDK2 inh
CN(C)CCCNc1oc(-c2ccc(COc3ccc(Cl)cc3)o2)nc1C#N | 1.1 | -1.2
CCCS(=O)(=O)N1CCCc2ccc(NS(=O)(=O)c3ccc(C(C)C)cc3)cc21 | 1.4 | nt
